Bioassay records (PubChem)
rRNA inh HTS = reduced GFP signal of wild-type E. coli, primary screen, bacterial rRNA inhibitor project, GFP/RFP fluorescence, OD600, single point; E. coli WT GFP vs humanized-ribosome RFP mutants, 24 h; active compounds read low; DMSO median 0, no signal -100; GFP signal change (wild-type ribosome), % (test concentration not listed); AID 720706, 2013; actives 1.6% (n = 350,000);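 active = significant combined selectivity score with lowered wild-type GFP, culture density cut under 30%, mutant RFP and density less affected; inactive = any of these conditions unmet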; note: one replicate is shown; some compounds called inactive have numbers as strong as hits
FGF22 binding = binders of human FGF22 protein, primary screen, FGF22 synaptogenesis inhibitor project, biophysical, thermal shift, single point; Fibroblast growth factor 22 (Homo sapiens), Q9HCT0; recombinant FGF22 thermal shift, SYPRO orange fluorescence; percent of sucrose octasulfate shift, DMSO zero; calls only at 9.99 µM; actives 1.5% (n = 340,000);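 active = melting point raised past a set limit in the mean and every replicate; three in four hits are not shown here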
Target sequence (Q9HCT0 whole entry, looked up): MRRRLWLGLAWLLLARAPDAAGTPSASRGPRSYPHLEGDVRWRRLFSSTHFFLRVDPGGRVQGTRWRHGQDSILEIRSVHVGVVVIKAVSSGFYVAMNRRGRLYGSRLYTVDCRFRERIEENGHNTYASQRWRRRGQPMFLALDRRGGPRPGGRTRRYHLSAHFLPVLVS
MLL AF4-AF9 inh = inhibitors of AF4 peptide binding to AF9, primary screen, biochemical, AlphaScreen, biotin-AF4 peptide, FLAG-AF9, single point; Protein AF-9 (Homo sapiens), P42568; inhibition, % at 10 µM; actives 0.47% (n = 350,000); AID 651704, 2012;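 active = every replicate reaching a set inhibition limit, whatever the replicate mean, cut at about 25% in these data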;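 note: 0% = plate neutral control median and 100% = total signal loss; the record names both 10 and 1 µM as test concentration; the first replicate is given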
Target sequence (P42568 whole entry, looked up): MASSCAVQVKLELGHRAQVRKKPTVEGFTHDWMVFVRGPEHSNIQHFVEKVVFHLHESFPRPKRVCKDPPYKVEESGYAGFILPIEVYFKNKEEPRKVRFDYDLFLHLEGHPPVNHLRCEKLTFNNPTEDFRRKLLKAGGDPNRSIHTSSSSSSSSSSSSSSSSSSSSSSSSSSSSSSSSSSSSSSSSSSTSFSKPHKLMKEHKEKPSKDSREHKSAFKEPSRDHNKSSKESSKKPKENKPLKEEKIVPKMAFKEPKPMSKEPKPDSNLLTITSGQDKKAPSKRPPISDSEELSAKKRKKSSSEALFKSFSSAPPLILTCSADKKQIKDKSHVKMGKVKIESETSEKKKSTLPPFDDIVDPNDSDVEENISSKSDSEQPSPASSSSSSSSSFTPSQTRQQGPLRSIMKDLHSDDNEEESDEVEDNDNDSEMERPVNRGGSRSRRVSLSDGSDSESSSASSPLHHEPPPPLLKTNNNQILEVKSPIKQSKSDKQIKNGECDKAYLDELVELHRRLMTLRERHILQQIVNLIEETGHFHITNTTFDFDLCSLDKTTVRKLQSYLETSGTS
rRNA inh HTS OD600 = also measured in rRNA inh HTS; calls as there; OD600 change, %; measured here: OD600 growth;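 optical density of the mix in the first replicate; 0 = DMSO median and -100 = no signal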
rRNA inh HTS RFP = second read-out of rRNA inh HTS, no call of its own (marks repeat the call); RFP signal change, %; measured here: RFP humanized mutant strains;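 first replicate; 0 = DMSO median and -100 = no signal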
Starred values were filed as active, the others as inactive; i = inactive; & = joins results of further samples. Only part of the results is shown, so the mix of outcomes need not match the whole.

smiles,rRNA inh HTS,rRNA inh HTS OD600,rRNA inh HTS RFP,FGF22 binding,MLL AF4-AF9 inh
O=C(Nc1ccccc1F)N[C@H]1CC[C@H](CCNC(=O)C2CCOCC2)O[C@@H]1CO,0,0,-1.4,i,-1.4
C[C@@H]1CN([C@H](C)CO)C(=O)c2cc(-c3ccc(F)cc3)cnc2O[C@@H]1CN(C)C(=O)c1ccccn1,1,4,-2.2,i,-5.0
CC(C)(C)NC(=O)C(c1ccc(C#N)cc1)n1c(=O)c(-c2ccccc2)nc2ccccc21 (centres undefined),11,9,1.7,i,14
Cc1cc(C)c(S(=O)(=O)N2CCN(C(=O)CC(C)n3nc(C)nc3C)CC2)c(C)c1 (centres undefined),-4,-5,-1.3,i,2.1
O=C(NC1CCCCC1)N[C@@H]1CC[C@@H](CCNS(=O)(=O)c2ccc(Cl)cc2)O[C@@H]1CO,-2,2,-1.4,i,1.1
COC(=O)[C@]12C[C@H](CC(=O)N3CCCC3)C(=O)N(CCC3=CCCCC3)C1=C[C@H](C(C)(C)C)O[C@@H]2C,-7,-4,4.2,i,5.8
COc1ccc2c3c(n(C)c2c1)[C@@H](CO)N(Cc1ccc2c(c1)OCO2)CC31CCN(C(C)=O)CC1,-2,-2,-0.2,i,1.8
C=C(CN(C)C)C(=O)c1cc(C)ccc1C,3,10,0.5,i,-6.1
COc1cccc(C#Cc2cnc3c(c2)C(=O)N([C@H](C)CO)C[C@H](C)[C@H](CN(C)C(=O)C2CC2)O3)c1,2,-6,2.7,i,-2.4
C[C@H](O)C#Cc1ccc([C@H]2[C@@H](CO)N3CCCCN(S(=O)(=O)Cc4ccccc4)C[C@@H]23)cc1,-2,9,-3.8,i,-5.7
CO[C@H]1CN(C)C(=O)c2cc(NC(=O)NC(C)C)ccc2OC[C@H](C)N(S(C)(=O)=O)C[C@H]1C,2,1,-1.7,i,-9.6
C[C@H]1CN([C@@H](C)CO)S(=O)(=O)c2ccc(-c3ccc(F)cc3)cc2O[C@H]1CN(C)C(=O)c1ccccc1F,-10,-16,6.2,i,5.4
C[C@@H]1CN([C@@H](C)CO)C(=O)Cc2cc(N(C)C)ccc2O[C@H]1CN(C)Cc1ccc(C(F)(F)F)cc1,-24,-55,27,i,43*
C[C@@H]1CN([C@@H](C)CO)C(=O)c2cc(NC(=O)Nc3ccc(F)cc3)ccc2O[C@@H]1CN(C)Cc1ccc2c(c1)OCO2,-8,-39,22,i,11
O=C(C[C@@H]1C=C[C@H](NC(=O)c2ccccn2)[C@H](CO)O1)NCc1cccc(F)c1,0,0,-1.4,i,-2.9
Cc1nn(C)cc1NC(=O)C[C@@H]1CC[C@@H]2[C@H](COc3ccc(NC(=O)c4cccc(F)c4)cc3C(=O)N2C)O1,-4,8,-0.9,i,-0.2
CC(=O)Nc1ccc(S(=O)(=O)NCCC(=O)NCc2ccco2)cc1,-1,-12,5.1,i,-6.7
C[C@H](NC(=O)C[C@H]1C[C@H]2c3cc(NC(=O)CN(C)C)ccc3O[C@H]2[C@H](CO)O1)c1ccccc1,2,5,-2.6,i,-0.7
CC(=O)Oc1ccccc1Cn1c(C)c(C(=O)NCc2ccccc2C(F)(F)F)sc1=O,-5,-14,-8.0,i,2.1
O=C(CCN1CCCCC1)NCC[C@@H]1CC[C@@H](NS(=O)(=O)c2cccc(F)c2)[C@@H](CO)O1,-4,-7,-0.4,i,-0.8
Cc1noc(C)c1S(=O)(=O)N(C)C[C@@H]1OCc2cn(nn2)CCCC(=O)N([C@@H](C)CO)C[C@H]1C,-1&-1,-6&-3,7.2&-0.6,i,-4.8&0.9
Cc1ccc(C(=O)NC(=S)c2c(C)cc3ccccn23)cc1,-15*,1.8*,-3.2*,i,21
O=C(Cc1ccccc1)N1CC[C@@H]2[C@H]1c1cc(-c3cccc(F)c3)ccc1N[C@@H]2CO,-47,-70,-3.0,i,4.0
O=C(c1cccnc1)N1C[C@@H]2[C@H](c3ccccc31)[C@@H](CO)N2C(=O)Nc1ccccc1F,-1,11,-1.1,i,-0.5
O=C(C[C@@H]1C[C@@H]2c3cc(NC(=O)Cc4ccncc4)ccc3O[C@@H]2[C@H](CO)O1)NCCc1ccccc1,4,6,-0.9,i,1.3
COc1ccc(S(=O)(=O)N(C)C[C@@H]2Oc3ccc(NC(=O)Nc4ccc(F)cc4)cc3C(=O)N([C@@H](C)CO)C[C@H]2C)cc1,-6,-14,3.2,i,1.9
COc1ccc(NC(=O)Nc2ccc3c(c2)C(=O)N([C@H](C)CO)C[C@@H](C)[C@@H](CN(C)S(=O)(=O)c2ccc(Cl)cc2)OCCCC[C@H](C)O3)cc1,5,-2,-4.0,i,-1.6
Cc1ccccc1S(=O)(=O)NCC[C@@H]1CC[C@H](NC(=O)Nc2cccc(F)c2)[C@@H](CO)O1,-7,-13,3.0,i,0.8
Cc1noc(C)c1S(=O)(=O)Nc1ccc2c(c1)CC(=O)N([C@H](C)CO)C[C@@H](C)[C@H](CN(C)S(=O)(=O)c1ccc(Cl)cc1)O2,-3,-2,-0.8,i,-1.0
COc1ccc(S(=O)(=O)N2CCCCN3[C@H](CO)[C@H](c4ccc(C#CCC(C)C)cc4)[C@@H]3C2)cc1,2,9,3.6,i,-2.8
Cn1cnc(S(=O)(=O)N2CCCCN3[C@H](CO)[C@H](c4ccc(-c5ccccc5)cc4)[C@H]3C2)c1,-6,5,-1.5,i,0.0
CC(C)OC(=O)N(C)C[C@@H]1OCc2cn(nn2)CCCC(=O)N([C@@H](C)CO)C[C@@H]1C,0,-2,-0.1,i,-3.7
CN(c1cc2c(c3c1ccn3C)C1CCC2O1)C1CCCCC1 (centres undefined),-20,-24,-4.8,i,32*
Cc1noc(C)c1NC(=O)N(C)C[C@H]1Oc2ncc(/C=C/c3ccccc3)cc2C(=O)N([C@@H](C)CO)C[C@H]1C,2,-2,-1.2,i,12
CCCc1cn(CC[C@@H]2CC[C@@H](NC(=O)C3CCC3)[C@@H](CO)O2)nn1,1,5,-0.1,i,-1.1
COc1ccc(S(=O)(=O)N(C)C[C@H]2Oc3ccc(NC(=O)NC4CCCCC4)cc3C(=O)N([C@H](C)CO)C[C@H]2C)cc1,0,-10,-0.3,i,0.8
COc1ccccc1CNS(=O)(=O)c1c(C)cc(C)cc1C,0,-16,6.6,i,-2.8
Cc1nc2cc3c(=O)n(C)cnc3cc2n1Cc1ccccc1,-2,11,5.1,i,2.9
C[C@H](NC(=O)[C@H]1[C@H](CO)[C@H]2Cn3c(ccc(-c4ccncc4)c3=O)[C@H]2N1C)c1ccccc1,-1,3,1.1,i,-2.0
CO[C@@H](CN(C)C(=O)c1ccc2c(c1)OCO2)[C@H](C)CN([C@H](C)CO)S(=O)(=O)c1ccccc1,-1,8,1.1,i,0.4
COCCNC(=O)C[C@@H]1CC[C@H](NC(=O)NC2CCCCC2)[C@H](CO)O1,0,1,-1.5,i,0.3
C=CCN1C=C(C(C)=O)C(=O)CC1,-1,3,-5.5,i,-4.8
CN1C(=O)c2cc(NC(=O)NC3CCCC3)ccc2OC[C@@H]2O[C@@H](CC(=O)O)CC[C@H]21,4,5,-1.8,i,-2.5
C[C@H]1CN([C@@H](C)CO)C(=O)Cc2cc(NC(=O)Cn3cnnn3)ccc2O[C@H]1CN(C)C(=O)Nc1ccc2c(c1)OCO2,0,6,-0.8,i,-2.4
C[C@@H]1CN([C@H](C)CO)C(=O)Cc2cc(NC(=O)NC3CCCCC3)ccc2O[C@H]1CN(C)Cc1ccc(Cl)c(Cl)c1,4,7,1.7,i,-8.0
CCCCOCCCNC(=O)C[C@H]1C[C@@]2(C(=O)OC)C(=C[C@H](C(C)(C)C)O[C@@H]2C)N(CCC2=CCCCC2)C1=O,17,4,3.6,i,-6.6
Brc1cccc(-c2nc3c4ccccc4ccn3c2CC2CCCCC2)c1,23,20,2.8,i,-4.8
NC(c1ccccc1)c1csc(NC(=O)NCCc2ccccc2)n1 (centres undefined),0,-9,29,i,-4.6
Cc1noc(C)c1C(=O)OCC(=O)NC(=O)c1ccc(C(C)(C)C)cc1,10,-46,-9.4,i,-1.7
CCNC(=O)[C@H]1[C@H](CO)[C@H]2Cn3c(cccc3=O)[C@H]2N1C(=O)CC1CC1,5,8,0.6,i,0.0

2 of these compounds in another layout:
> CN1C(=O)c2cc(NC(=O)NC3CCCC3)ccc2OC[C@@H]2O[C@@H](CC(=O)O)CC[C@H]21
  rRNA inh HTS: 4	rRNA inh HTS OD600: 5	rRNA inh HTS RFP: -1.8	FGF22 binding: i	MLL AF4-AF9 inh: -2.5
> C[C@H]1CN([C@@H](C)CO)C(=O)Cc2cc(NC(=O)Cn3cnnn3)ccc2O[C@H]1CN(C)C(=O)Nc1ccc2c(c1)OCO2
  rRNA inh HTS: 0	rRNA inh HTS OD600: 6	rRNA inh HTS RFP: -0.8	FGF22 binding: i	MLL AF4-AF9 inh: -2.4

(listing goes on)
smiles,rRNA inh HTS,rRNA inh HTS OD600,rRNA inh HTS RFP,FGF22 binding,MLL AF4-AF9 inh
O=C(C[C@H]1C[C@H]2c3cc(NC(=O)c4ccc5c(c4)OCO5)ccc3O[C@H]2[C@@H](CO)O1)NC1CCCCC1,4,5,0.2,i,0.6
NC(=O)C1(Nc2ccc(-c3ccccc3)cc2)CCCC1,-7,-60,14,i,1.2
Cc1noc(C)c1NC(=O)Nc1ccc2c(c1)C(=O)N(C)[C@@H]1CC[C@H](CC(=O)N(C)C)O[C@@H]1CO2,4,5,-2.3,i,0.3
O=C(NC1CCCCC1)C(c1ccc(C(F)(F)F)cc1)n1c(=O)c(-c2ccccc2)nc2ccccc21 (centres undefined),-3,-10,-5.9,i,3.1
CC(C)C[C@@H](CN)NC(=O)c1nc[nH]c1C(=O)N[C@@H](Cc1c[nH]c2ccccc12)C(=O)CNC[C@H](C)NC(=O)c1nc[nH]c1C(=O)N[C@@H](C)C(=O)O,24,13,4.1,i,4.4
COCC(=O)N1CC2(C1)CN(Cc1ccccc1Cl)[C@@H](CO)c1[nH]c3cc(OC)ccc3c12,-4,-11,2.4,i,0.7
C[C@H]1CN([C@@H](C)CO)C(=O)c2cc(NC(=O)Nc3ccc(F)cc3)ccc2O[C@@H]1CN(C)CC1CC1,3,-6,-0.8,i,12
Cc1cccc(S(=O)(=O)N[C@H]2CC[C@H](CCNC(=O)c3cnccn3)O[C@H]2CO)c1,-1,4,-3.9,i,2.0
C[C@H](CO)N1C[C@H](C)[C@H](CN(C)C(=O)Nc2ccccc2)Oc2ccc(N(C)C)cc2CC1=O,-3,5,-2.0,i,-1.4
CC(=O)Nc1cccc(-c2ccnc3c2CC(C(=O)NCCc2ccccc2)O3)c1 (centres undefined),-9,-14,-1.8,i,3.5

Complete entries as entered above:
`CC(C)C[C@@H](CN)NC(=O)c1nc[nH]c1C(=O)N[C@@H](Cc1c[nH]c2ccccc12)C(=O)CNC[C@H](C)NC(=O)c1nc[nH]c1C(=O)N[C@@H](C)C(=O)O` is listed as rRNA inh HTS: 24; rRNA inh HTS OD600: 13; rRNA inh HTS RFP: 4.1; FGF22 binding: i; MLL AF4-AF9 inh: 4.4
`Cc1cccc(S(=O)(=O)N[C@H]2CC[C@H](CCNC(=O)c3cnccn3)O[C@H]2CO)c1` is listed as rRNA inh HTS: -1; rRNA inh HTS OD600: 4; rRNA inh HTS RFP: -3.9; FGF22 binding: i; MLL AF4-AF9 inh: 2.0

The list continues:
smiles,rRNA inh HTS,rRNA inh HTS OD600,rRNA inh HTS RFP,FGF22 binding,MLL AF4-AF9 inh
CN(C)CC(=O)Nc1ccc2c(c1)[C@H]1C[C@H](CC(=O)NCc3cccnc3)O[C@H](CO)[C@H]1O2,2,1,-2.2,i,-0.6
O=C(Nc1ccccc1)N1C[C@@H]2[C@H](c3ccccc31)[C@@H](CO)N2Cc1ccc(F)cc1,-9,-3,1.7,i,-9.3
CCCc1nc2ccc(Cl)cn2c1Cc1cccc(Cl)c1,-3,-5,-7.7,i,-1.8
CN(CCO)C(=O)c1nc[nH]c1C(=O)N1CCN(C(=O)OC(C)(C)C)CC1,13,9,1.3,i,-8.5
CCCS(=O)(=O)NC(=O)C1(C)CCN(C(=O)COc2ccccc2)C1 (centres undefined),10,15,1.0,i,-0.8
O=S1(=O)CC(N2CCN(CCO)CC2)CN1C1CCCCC1 (centres undefined),13,7,4.3,i,-0.2
N#C[C@@H]1[C@@H](c2ccc(C#CC3CC3)cc2)[C@H](CO)N1C(=O)c1cccc(F)c1,1,-2,1.7,i,-0.3
CCCS(=O)(=O)NC(=O)C1(C)CCN(C(=O)c2cccc(OC(F)(F)F)c2)C1 (centres undefined),9,17,4.9,i,1.2
COc1ccc2c3c(n(C)c2c1)[C@@H](CO)N(C(C)=O)CC31CN(Cc2nccs2)C1,-1,-5,-3.4,i,-0.1
CN1[C@@H]2c3ccc(-c4ccccc4)c(=O)n3C[C@H]1[C@H](CO)[C@H]2C(=O)NC1CCCCC1,0,7,-1.7,i,-0.7
